CSC inhib: cancer stem cell viability inhibitors, primary screen, luminescence; cancer stem cell-like cells viability; inhibition, % at 7.5 µM; 300,000 tested, 1.1% active; AID 2717, 2010;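 active means mean at 75% or more and at least half the replicates too; tested in HMLE shEcad cells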;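 further: 0% = median of negative and 100% = median of positive control wells; the first replicate is given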
Rce1 inh: yeast Rce1p protease inhibitors, primary screen, biochemical, fluorescence, cell-free homogeneous; CAAX prenyl protease 2 (Saccharomyces cerevisiae (strain ATCC 204508 / S288c)), Q03530; calls only; yeast membranes, quenched prenylated peptide cleavage fluorescence; 290,000 tested, 0.27% active; AID 2563, 2010;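 active means fall in fluorescence gain of 50% or more versus controls, with final raw signal at or below 3038400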;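 further: plate controls were neutral control wells for no effect and wells lacking membranes for full effect; tested at 10 µM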
HIV Env fusion: inhibitors of HIV-1 Env-driven cell-cell fusion, primary screen, HeLa-JRFL effector, CEM21 target cells, luciferase; 360,000 tested, 1.1% active; inhibition, % at 12.3 µM;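 active means mean replicate inhibition score of at least 50 and every replicate individually at or above 50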;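 further: 0% = plate neutral controls and 100% = maraviroc near 300 nM; one replicate is shown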
PABP FP inh: PABP poly(A) RNA binding inhibitors, primary screen, biochemical, fluorescence polarization, uHTS; Polyadenylate-binding protein 1 (Homo sapiens), P11940; inhibition, % at 35 µM; 290,000 tested, 1% active; AID 2014, 2009;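 active means 50% or more with normal probe brightness, or confirmed in later tests; about a fifth of its hits are not listed in these tables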;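 further: calls also rest on retests at 20 µM and on dose response follow-up; controls were probe without protein and protein plus probe with vehicle; some compounds called inactive have numbers as strong as hits; many hits fall short of the cut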
Target sequence (P11940 whole entry, looked up): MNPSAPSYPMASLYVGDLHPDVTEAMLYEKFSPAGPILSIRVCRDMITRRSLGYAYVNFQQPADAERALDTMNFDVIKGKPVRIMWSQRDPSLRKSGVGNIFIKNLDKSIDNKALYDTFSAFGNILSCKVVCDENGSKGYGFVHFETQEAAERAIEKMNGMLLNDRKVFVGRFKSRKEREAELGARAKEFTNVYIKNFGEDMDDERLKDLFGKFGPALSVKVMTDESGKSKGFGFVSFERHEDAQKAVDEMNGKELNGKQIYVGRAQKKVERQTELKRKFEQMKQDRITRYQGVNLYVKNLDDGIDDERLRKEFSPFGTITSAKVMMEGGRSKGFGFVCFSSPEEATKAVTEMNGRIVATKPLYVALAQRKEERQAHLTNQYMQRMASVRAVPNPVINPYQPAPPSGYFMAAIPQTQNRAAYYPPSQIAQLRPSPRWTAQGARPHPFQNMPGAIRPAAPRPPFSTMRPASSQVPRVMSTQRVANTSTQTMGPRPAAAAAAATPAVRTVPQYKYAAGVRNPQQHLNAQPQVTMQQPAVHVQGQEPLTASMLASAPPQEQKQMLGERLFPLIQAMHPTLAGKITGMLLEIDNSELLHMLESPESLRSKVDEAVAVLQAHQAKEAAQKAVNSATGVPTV
Yeast UUG start: modulators of yeast start codon fidelity, primary screen, whole organism, S. cerevisiae, single point, plate reader; S. cerevisiae UUG-firefly luciferase reporter, luminescence/redox ratio; activity score, % at 18.7 µM; 350,000 tested, 0.13% active; AID 602363, 2012;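 active means replicate mean at a twofold rise or more, about +100% in these data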;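 further: firefly luciferase made from a UUG start codon reports start codon fidelity; reporter light over untreated wells divided by growth signal over untreated wells; some hits fall short of that in this replicate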
eIF4H FP inh: human eIF4H binding inhibitors, primary screen, translation initiation inhibitor project, biochemical, uHTS, fluorescence polarization; Eukaryotic translation initiation factor 4H (Homo sapiens), Q15056; 290,000 tested, 0.94% active; eIF4H fluorescence polarization binding assay; inhibition, % at 35 µM;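 active means 50% or more with normal probe brightness, or confirmed in later tests; about a fifth of its hits are not listed in these tables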;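 further: calls also rest on retests at 20 µM and on dose response follow-up; 0% = protein and probe with vehicle and 100% = probe without protein; strong numbers were not always called active; many hits fall short of the cut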
MT1-MMP act inh: blockers of MT1-MMP proenzyme processing, primary screen, HT1080 RFP-PRO-GFP cells, GFP/RFP fluorescence; Matrix metalloproteinase-14 (Homo sapiens), P50281; 360,000 tested, 0.061% active; GFP/RFP ratio fluorescence, overnight; percent of plate control window, DMSO zero; GFP/RFP ratio change, % at 20 µM;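 active means GFP/RFP ratio change of at least 30% with cell ATP level not reduced by more than half and red fluorescence within 50% of control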; further: strong numbers were not always called active
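Compound: 20 µM single dose, 1% DMSO / System: HT1080 RFP-PRO-GFP cells / Controls: DMSO and RFP-L50D-GFP cell wells / Read-out basis: GFP/RFP fluorescence ratio / Schedule: overnight compound exposure at 37 °C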
eIF4H FP inh retest: second read-out of eIF4H FP inh, no call of its own (marks repeat the call); inhibition, %; compound at 20 µM; confirmation average;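 mean of two retest wells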
PABP FP inh retest: recorded beside PABP FP inh, whose call it bears; inhibition, %; compound at 20 µM; confirmation repeats;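 mean of two retest wells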
MT1-MMP act inh RFP: second read-out of MT1-MMP act inh, no call of its own (marks repeat the call); RFP signal change, %; measured here: RFP expression control read;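 0 = vehicle wells; hits needed this value within 50% of zero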
* marks the source's active call; other numbers are inactive results; i = inactive; nt = not tested or not shown; & = joins results of further samples. Only part of the results is shown; count on the stated rates, not on these rows.

Preview (13 entries):
SMILES	CSC inhib	Rce1 inh	HIV Env fusion	PABP FP inh	Yeast UUG start	eIF4H FP inh	MT1-MMP act inh	MT1-MMP act inh RFP	others
CCCn1nc2cc(C(=O)NCc3ccc(OC)cc3)ccc2c1OCC	-5	i	10	4	-24	-5	4	2
CC(C)(C)OC(=O)N1CCCC(C(=O)Nc2cccc(C(=O)N3CCCC3)c2)C1 (stereo not given)	-17	nt	2	nt	17	nt	-1	-2
Cc1ccc(S(=O)(=O)N2CCN(C(=O)COC(=O)C3CCC3)CC2)cc1	-10	i	0	nt	nt	nt	4	1
COc1ccc(S(=O)(=O)N2CCc3ccccc32)cc1C(=O)N1CCN(C=O)CC1	-17	nt	4	nt	-9	nt	-4	2
CC(=O)NC(=O)NC1CSCC1OC(C)=O (stereo not given)	2	i	-56	-6	-16	2	0	1
CC(C)(C)NC(=O)NC(=O)COc1ccccn1	-23	i	-5	-6	-14	5	-5	-2
COc1ccccc1CNC(=O)CC(NS(=O)(=O)c1ccc(C)cc1)c1ccco1 (stereo not given)	-4	i	nt	-8	-4	-11	5	1
CCc1nnc(NC(=O)CSc2nnc(C(C)NC(=O)c3ccccc3)n2C)s1 (stereo not given)	-17	i	-7	1	-14	-4	-1	-2
Cc1ccc(NCC(O)Cn2cnc3c2c(=O)n(C)c(=O)n3C)cc1 (stereo not given)	-5	i	9	-4	nt	-4	3	3
Cc1ccc(NC(=O)CNC(=O)OCc2ccccc2)cc1C	9	i	3	-2	-12	1	-1	-1
CCOC(=O)c1ccc(S(=O)(=O)n2c(=O)oc3ccccc32)cc1	-6	nt	nt	nt	-21	nt	2	-15
CCC1Nc2ncnc(N3CCOCC3)c2N(Cc2ccccc2)C1=O (stereo not given)	-4	i	-16	nt	-8	nt	-4	2
CC1CCN(c2c(NCC3CCC(C(=O)N4CCCC(C)C4)CC3)c(=O)c2=O)CC1 (stereo not given)	-2	i	-10	-9	0	-3	1	1

All compounds of this part, repeating the preview:
SMILES	CSC inhib	Rce1 inh	HIV Env fusion	PABP FP inh	Yeast UUG start	eIF4H FP inh	MT1-MMP act inh	MT1-MMP act inh RFP	others
CCCn1nc2cc(C(=O)NCc3ccc(OC)cc3)ccc2c1OCC	-5	i	10	4	-24	-5	4	2
CC(C)(C)OC(=O)N1CCCC(C(=O)Nc2cccc(C(=O)N3CCCC3)c2)C1 (stereo not given)	-17	nt	2	nt	17	nt	-1	-2
Cc1ccc(S(=O)(=O)N2CCN(C(=O)COC(=O)C3CCC3)CC2)cc1	-10	i	0	nt	nt	nt	4	1
COc1ccc(S(=O)(=O)N2CCc3ccccc32)cc1C(=O)N1CCN(C=O)CC1	-17	nt	4	nt	-9	nt	-4	2
CC(=O)NC(=O)NC1CSCC1OC(C)=O (stereo not given)	2	i	-56	-6	-16	2	0	1
CC(C)(C)NC(=O)NC(=O)COc1ccccn1	-23	i	-5	-6	-14	5	-5	-2
COc1ccccc1CNC(=O)CC(NS(=O)(=O)c1ccc(C)cc1)c1ccco1 (stereo not given)	-4	i	nt	-8	-4	-11	5	1
CCc1nnc(NC(=O)CSc2nnc(C(C)NC(=O)c3ccccc3)n2C)s1 (stereo not given)	-17	i	-7	1	-14	-4	-1	-2
Cc1ccc(NCC(O)Cn2cnc3c2c(=O)n(C)c(=O)n3C)cc1 (stereo not given)	-5	i	9	-4	nt	-4	3	3
Cc1ccc(NC(=O)CNC(=O)OCc2ccccc2)cc1C	9	i	3	-2	-12	1	-1	-1
CCOC(=O)c1ccc(S(=O)(=O)n2c(=O)oc3ccccc32)cc1	-6	nt	nt	nt	-21	nt	2	-15
CCC1Nc2ncnc(N3CCOCC3)c2N(Cc2ccccc2)C1=O (stereo not given)	-4	i	-16	nt	-8	nt	-4	2
CC1CCN(c2c(NCC3CCC(C(=O)N4CCCC(C)C4)CC3)c(=O)c2=O)CC1 (stereo not given)	-2	i	-10	-9	0	-3	1	1
COc1ccc(N2CCN(C3CCCN(C(=O)CN4CCOC4=O)C3)CC2)cc1 (stereo not given)	7	i	nt	7	2	-3	2	1
Cc1cc(C(=O)N/N=C/c2cccc([N+](=O)[O-])c2O)n[nH]1	-2	i	27	-8	nt	20	-1	1
COC(=O)[C@H]1[C@H](C(=O)OC)[C@@H](C(=O)OC)N(c2ccc(OC)cc2)[C@@H]1C(=O)OC	2	i	-3	-7	nt	8	-2	3
O=C(NC1CCCC1)c1ccc(Cl)s1	-21	i	4	4	-7	6	-3	0
CCn1c(SCC(=O)NNC(=O)Cc2ccccc2)nnc1-c1ccncc1	-22	i	-4	1	nt	3	3	6
Clc1ccc(OCCOCCOc2cccc3cccnc23)c(Br)c1	40	i	12	1	nt	-6	-4	0
Cc1ccc(S(=O)(=O)c2nc(-c3ccc(F)cc3)oc2N2CCOCC2)cc1	-9	nt	5	8	-15	8	-4	-3
CCOC(=O)c1cccc(NC(=O)C2CCCN(S(=O)(=O)c3cnc[nH]3)C2)c1 (stereo not given)	-11	i	-19	4	-17	10	-3	-1
COc1cc(SC)ccc1C(=O)OCC(=O)NCC(C)C	11	i	-3	2	nt	4	2	1
CCCNC(=O)C1(C)CCN(C(=O)c2ccc(OC)cc2OC)C1 (stereo not given)	nt	nt	15	nt	-11	nt	1	7
O=C1SCCC1NS(=O)(=O)c1ccc([N+](=O)[O-])cc1 (stereo not given)	5	i	-29	5	-24	22	1	1
COc1ccc(NC(=O)C2CCCN2S(=O)(=O)c2ccc3c(c2)CCC(=O)N3)cc1 (stereo not given)	0	i	-7	9	3	5	3	1
O=C(OC1CCOC1=O)c1ccccc1C(=O)c1ccc(Cl)c([N+](=O)[O-])c1 (stereo not given)	13	nt	nt	nt	1	nt	-1	-1
COCc1cc(N2CCCCC2)nc(-c2ccccc2)n1	-3	i	-7	1	-17	-8	-1	0
CC(O)c1c(-c2ccccc2)nn(C)c1Cl (stereo not given)	0	i	2	-2	nt	3	0	4
c1ccc(-c2cnc(-c3ccccc3)nn2)cc1	5	i	-129	nt	-38	nt	4	1
Nc1nc(NCc2ccccc2Cl)n(-c2ccccc2)n1	4	i	-11	-4	-18	0	6	1
CCOC(=O)N/N=C/c1ccc(C)o1	nt	i	-6	-6	-17	-6	0	4
COc1ccc(NC(=O)C2Cc3c(-c4cccc(NC(C)=O)c4)ccnc3O2)cc1 (stereo not given)	nt	nt	-324	nt	-4	nt	5	-5
CCOc1cccc(CN2CCC(n3nccc3NC(=O)c3ccc4c(c3)OCO4)CC2)c1	10	i	6	3	-9	-5	0	0
CCCCn1c(N)c(N(CCC(C)C)C(=O)c2ccc3ccccc3c2)c(=O)[nH]c1=O	-1	nt	-1	nt	-7	nt	-4	1
O=C(NCCCNC(=O)c1cccnc1)c1ccc(Cl)cc1	-8	i	-26	7	nt	-1	4	5
COc1cc(-c2c(C#N)c(N)nc3[nH]c(=S)[nH]c(=O)c23)ccc1O	-8	i	15	-2	8	1	-2	1
Cc1ccc(S(=O)(=O)C2(C(=O)NCc3ccc4c(c3)OCO4)CC2)cc1	10	i	23	-8	-11	-1	-5	-8
COc1cc(OC)cc(C(=O)Nc2cccc(NC(C)=O)c2)c1	-19	i	-75	-1	-27	7	-4	0
CCOC(=O)N1CCN(C(=O)c2cc3c(s2)-c2ccccc2OC3)CC1	-28	i	26	-12	-9	-1	2	5
CS(=O)(=O)N(CC(=O)Nc1ccccc1C(=O)N1CCCC1)c1ccc2c(c1)OCO2	nt	i	-70	2	nt	-4	-1	3
COc1ccc(OC)c(NC(=O)c2nc(-c3ccccc3)oc2C)c1	-21	i	-9	8	-15	0	-10	-5
c1ccc(Nc2nc(-c3ccncc3)cs2)nc1	6	i	nt	-3	-16	1	-3	-17
O=C(NCC(=O)N1CCN(S(=O)(=O)c2cccc(F)c2)CC1)c1ccc(Br)o1	-3	i	-114	nt	nt	nt	-3	3
CC(NC(C(=O)c1ccccc1)c1ccccc1)c1ccccc1 (stereo not given)	nt	nt	25	nt	-10	nt	-5	1
CCn1cc(C(=O)N(C)c2cc(C)ccc2OC)c2cc(OC)c(OC)cc2c1=O	-4	i	12	-7	-3	-4	1	-2
COC(=O)CCC(=O)N1CCc2cc(S(=O)(=O)N3CCc4ccccc43)ccc21	-2	i	nt	-15	-6	-2	4	4
CCOc1ccc(CC(=O)C2C(=O)CC(C)(C)CC2=O)cc1OCC	0	nt	-9	24	20	1	2	5
Cc1nc(-c2ccccn2)nc(SCC(=O)c2ccc(F)cc2)c1Cl	-16	i	13	-2	nt	6	15	-2
COc1ccc(CSc2ncnc3sccc23)cc1F	1	i	-7	0	-7	8	-3	-4
CC(C)(C)n1nnnc1C(c1cccc(C#N)c1)N1CCC(Cc2ccccc2)CC1 (stereo not given)	4	i	nt	118	-26	118	-13	-15	eIF4H FP inh retest=-6;PABP FP inh retest=3
Cc1ccc(N2CC(C(=O)Nc3nnc(SCC(=O)Nc4nc(C)cs4)s3)CC2=O)cc1 (stereo not given)	9	i	23	1	nt	-3	-1	0
CC(=O)N(C)C[C@@H]1Oc2ncc(C#Cc3ccc(F)cc3)cc2C(=O)N([C@@H](C)CO)C[C@H]1C	nt	nt	10	nt	-15&26&-7	nt	-1	3
Cc1ccc(C)c(S(=O)(=O)NCC(=O)Nc2ccc3c(c2)OCO3)c1	-17	i	8	4	-8	3	1	3
CN(CC(=O)NCc1cccnc1)S(=O)(=O)c1cc(Cl)ccc1Cl	-17	i	2	nt	-17	nt	1	2
O=C1C(C=NCCCN2CCCC2=O)=C(O)c2ccccc21	-9	i	-37	3	-6	7	4	2
CCN(CC)CCCNC(=S)N(CCO)Cc1cc2cc3c(cc2[nH]c1=O)OCO3	-18	i	0	-2	0	-8	-1	2
CCCCNC(=O)CCn1nc(-c2ccccc2)c2ccccc2c1=O	-4	i	nt	3	1	-6	0	-1
CC12C=CC(=O)C=C1CCC1C2C(=O)C[C@@]2(C)C1CCC2(O)C(=O)CO (stereo not given in full)	-9	i	-26	nt	-7	nt	1	1
CC(C)C(=O)Nc1cccc(C(=O)NCc2ccc(S(N)(=O)=O)cc2)c1	nt	nt	-46	-3	-7	1	0	3
O=C(O)/C(=C\c1cccc(O)c1)c1ccc(S(=O)(=O)N2CCCC2)s1	nt	nt	2	nt	5	nt	0	4
(further entries)
SMILES	CSC inhib	Rce1 inh	HIV Env fusion	PABP FP inh	Yeast UUG start	eIF4H FP inh	MT1-MMP act inh	MT1-MMP act inh RFP	others
O=C(NCc1ccco1)c1ccc2c(c1)N(Cc1ccccc1)C(=O)CS2	nt	i	12	-2	-10	18	-5	-4
CCCCn1c(N)c(N(CCC(C)C)C(=O)c2ccc3c(c2)OCO3)c(=O)[nH]c1=O	-5	nt	-1	nt	5	nt	3	-2
O=C(CNc1ccc(F)cc1)c1ccccc1	25	i	106*	2	nt	10	2	5
Cc1ccc(SCCN2CCN(C)CC2)cc1	10	i	-22	5	-8	-8	2	1
COc1ccc2cc3cc(C(=O)N(C)C4CCCCC4)oc3nc2c1	-2	i	nt	2	-13	-4	9	-10
